D2 potentiator = human D2 receptor positive allosteric modulation; DiscoveRx D2 beta-arrestin cells, luminescence, 90 min; 100% = 57 uM dopamine signal; AID 624464; hit rate 0.23% among 360,000; potentiation, % (no concentration beside the values); P14416; active = potentiation of 50% or more; inconclusive = 30% to 50%; inactive = 30% or less;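 further: compound concentration not given in the record; tested on top of an EC20 dose of dopamine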
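D2 cells co-treated with compound plus 50 nM dopamine (EC20) for 90 min at 37 deg C to detect potentiation. Beta-arrestin recruitment was read as enzyme-fragment luminescence after 1 h at ambient temperature. Full response was set by 57 uM dopamine.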
TRPV1 PAM = human TRPV1 potentiation; potentiation, % at 8.33 µM; AID 540277; TRPV1-expressing cells, Fluo-8 calcium influx, capsaicin EC20 potentiation; host cell line not named in the record; control for the full effect not named in the record; hit rate 0.02% among 320,000; active means potentiation above 80%; inconclusive means 30% to 80%; inactive means below 30%; further: 0% is about no effect
Target sequence (Q8NER1 whole entry, looked up): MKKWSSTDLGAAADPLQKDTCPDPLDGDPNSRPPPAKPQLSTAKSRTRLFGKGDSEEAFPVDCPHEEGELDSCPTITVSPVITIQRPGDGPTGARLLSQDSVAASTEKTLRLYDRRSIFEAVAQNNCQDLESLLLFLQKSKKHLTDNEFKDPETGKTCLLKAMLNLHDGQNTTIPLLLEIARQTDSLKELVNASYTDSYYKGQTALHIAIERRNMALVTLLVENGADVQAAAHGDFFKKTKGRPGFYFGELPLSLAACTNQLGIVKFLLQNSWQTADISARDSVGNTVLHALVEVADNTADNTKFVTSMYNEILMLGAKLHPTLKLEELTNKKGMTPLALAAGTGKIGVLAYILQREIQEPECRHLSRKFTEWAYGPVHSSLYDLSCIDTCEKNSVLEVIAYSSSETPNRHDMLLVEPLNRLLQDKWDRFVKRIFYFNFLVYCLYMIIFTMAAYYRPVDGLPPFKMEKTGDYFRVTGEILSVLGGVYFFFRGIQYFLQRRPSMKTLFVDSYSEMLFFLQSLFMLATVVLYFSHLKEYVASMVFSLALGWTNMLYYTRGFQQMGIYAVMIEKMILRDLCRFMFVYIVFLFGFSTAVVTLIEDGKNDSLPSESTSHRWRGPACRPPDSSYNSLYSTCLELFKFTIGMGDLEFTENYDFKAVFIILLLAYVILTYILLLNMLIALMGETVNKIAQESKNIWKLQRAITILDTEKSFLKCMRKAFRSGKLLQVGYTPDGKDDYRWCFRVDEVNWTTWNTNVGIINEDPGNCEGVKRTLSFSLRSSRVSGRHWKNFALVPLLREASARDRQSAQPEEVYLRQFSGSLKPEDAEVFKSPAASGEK
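Cells expressing TRPV1 were dye-loaded with Fluo-8 and read kinetically: 10 s baseline, 3 min after compound (agonist portion), then 2 min after EC20 capsaicin (allosteric enhancer portion). Calcium-bound dye fluorescence at 480/520 nm.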
Sfp inh = inhibitors of Bacillus subtilis Sfp phosphopantetheinyl transferase | Biochemical Sfp PPTase activity, qHTS | Potency, µM, for the others: max response, negative = inhibition, hits mostly inhibitors | hit rate 3.5% among 310,000 | AID 1490; active means well fitted inhibition curve with a large enough effect; inconclusive means small, poorly fitted or top-dose-only effect, or another doubt; inactive means no such curve, though single readings can be large or run the other way;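 further: the enzyme is Sfp with the accession as filed and its product quenches rhodamine fluorescence; potency means the concentration at half of the fitted maximal effect; 0% = enzyme reaction without inhibitor and -100% = no enzyme wells; top concentration of the series not given in the record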
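Fluorescence-quenching assay with 15 nM Sfp, 5 uM rhodamine-CoA and 12.5 uM BHQ-2-labelled ybbR peptide in pH 7.6 Hepes/MgCl2 buffer. Enzyme was pre-incubated with compound for 15 min at room temperature. Rate was taken from the 30-min fluorescence change (525/598 nm).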
Menin MLL FP FL = inhibitors of human menin-MLL interaction, wild-type MLL peptide. 290,000 tested, under 10 active. FP activity change, % at 61.4 µM. AID 1766. Fluorescence polarization, fluorescein-MLL peptide displacement from menin; inconclusive = falling polarisation curve, or a change in total fluorescence; inactive = total fluorescence flat and polarisation flat or rising; no compound was filed as active; the % refers to the polarisation; negative = inhibition;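 further: % of control where 0% means no effect; inhibitors lower the polarisation; unlabelled MLL peptide was the positive control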
gsp agonist = agonists of gsp mutant (McCune-Albright syndrome) | gsp mutant cells, cAMP HTRF, 30 min; control for the full effect not named in the record | Potency, µM (titrated, usually from 76.9 µM), for the others: at the top dose activation (cAMP increase), hits mostly activators | hit rate 0.13% among 340,000 | AID 624287; active = well fitted activation curve with a large enough effect; inconclusive = small, poorly fitted or top-dose-only effect, or another doubt; inactive = no such curve, though single readings can be large or run the other way; cell line not stated here;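 further: phosphodiesterase inhibitor Ro 20-1724 added with compounds to block cAMP breakdown; potency means the concentration at half of the fitted maximal effect; nearly all actives have a fitted effect of over 60% in size; about a fifth of the inactives were tested at one dose only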
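Cells in DMEM/10% FBS with G418 were pretreated with compounds in DMSO plus […] (300 uM stock) for 30 min at 37C. cAMP was measured by HTRF (cAMP-d2 plus anti-cAMP antibody-K) after 30 min at room temperature.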
ClpP mod = qHTS Assay for Activators of ClpP; ATP-dependent Clp protease proteolytic subunit (Bacillus subtilis (strain 168)), P80244; purified B. subtilis ClpP, FRET peptide cleavage, 20 min; Potency, µM (series often up to 57.5 µM), inactives show at the highest dose activity change, negative = active; hit rate 1.9% among 340,000; AID 651965, 2013; active = well fitted falling curve with a large enough effect; inconclusive = small, poorly fitted or top-dose-only effect; inactive = no such curve, though single readings can be large or run the other way; further: potency means the concentration at half of the fitted maximal effect; the source files actives as falling curves though it sought activators and does not explain the sign; nearly all actives have a fitted effect of over 65% in size; many hits overshoot -100%
Target sequence (P80244 whole entry, looked up): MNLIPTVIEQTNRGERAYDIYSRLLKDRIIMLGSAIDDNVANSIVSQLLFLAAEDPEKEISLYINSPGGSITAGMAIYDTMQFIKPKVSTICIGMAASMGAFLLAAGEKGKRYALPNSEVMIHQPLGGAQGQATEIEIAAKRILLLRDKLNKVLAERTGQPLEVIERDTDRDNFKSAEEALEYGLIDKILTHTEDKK
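ClpP 10 microg/mL final, pH 8 Tris/KCl buffer with BSA, glycerol, Tween-20; compound pinned in; FRET-FV substrate; RT 20 min; Ex320/Em430; ΔFRET vs ADEP 5.8 microM, DMSO, no enzyme.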
gsp antag = antagonizes gsp, the McCune-Albright syndrome mutation | hit rate 0.4% among 340,000 | Potency, µM (doses to about 76.9 µM), for the others: at the highest dose activity change, negative = inhibition, actives largely listed as inhibitors | AID 624288 | gsp-mutant cells, cAMP HTRF, 30 min; control for the full effect not named in the record; active = falling curve of any shape with a large fitted effect; inconclusive = falling curve, mostly with a smaller effect; inactive = flat or rising curve; cell line not stated here;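 further: intracellular cAMP measured with PDE inhibitor Ro 20-1724 present during compound exposure; potency means the concentration at half of the fitted maximal effect; on the % scale 0 is the no-effect control and ±100 the full control effect; nearly all actives have a fitted effect of over 65% in size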
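Cells, 2000/well, grown 16–24 h in DMEM 10% FBS with 0.5 mg/ml G418, then compounds plus […] (300 uM addition stock), 30 min at 37C. cAMP read by HTRF (cAMP-d2 and anti-cAMP antibody-K in lysis buffer) after 30 min RT.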
An asterisk follows results filed as active; ? = inconclusive; . = not tested or not shown; & = joins results of further samples; [ ] = dose if it differs, or a comment.

structure	D2 potentiator	TRPV1 PAM	Sfp inh	Menin MLL FP FL	gsp agonist	ClpP mod	gsp antag
COc1ccccc1-c1nnc(SCC(=O)N2CC(C)CC(C)C2)o1 (stereo not given)	-1	-14	1%	-2.0	4%	-2.8%	-12%[15.4 µM]
COc1ccc(Cc2nc3ccc(C(=O)N(C)C(C)c4ccon4)cc3o2)cc1 (stereo not given)	-9	-2	3%	.	-72%[inhibitor]	-0.4%	-7%
CC1CCCCC12NC(=O)N(CC(=O)Nc1ccc3c(c1)OCCCO3)C2=O (stereo not given)	-1	-4	.	.	-10%	-0.7%	11%
Cc1ccc(NC2OC(C(O)CO)C(O)C2O)cc1[N+](=O)[O-] (stereo not given)	-13	.	-1%	3.5	-42%[inhibitor]	0.3%	12%
CNC(=O)c1cc2c(cn1)[nH]c1ccccc12	10	.	28%&-22%	2.8&-1.1	.	4.4%&4.9%	-2%
COc1ccc(C(=O)CN2C(=O)C(C)(C)Oc3ccc(C(=O)N4CCCCCC4)cc32)cc1	-7	-15	3%	-0.4	12%	-1.2%	-26%
O=C(/C=C/c1ccco1)OCC(=O)N1CCCCC1	6	.	.	.	-35%[inhibitor]	-4.0%	1%
O=C(NN=C1CCCC1)c1ccc(O)cc1O	9	-16	-17%	.	1%	-5.9%	4%
O=C(N/N=C(\CC(=O)c1cccs1)C(F)(F)F)c1ccncc1	-6	1	25%	?	6%[15.4 µM]	.	-5%
COc1ccc(/C=C/C(=O)NC(=S)Nc2ccc(S(N)(=O)=O)cc2)cc1	2	2	9%	-1.1	-4%[15.4 µM]	.	-9%
Cc1ccc(/C=N/NC(=O)Cn2nc(C)c(Br)c2C)o1	-27	0	-23%	-0.4	27%	0.6%	-1%
CN(C)c1ccc(CNC(=O)CCS(=O)(=O)c2ccc3c(c2)oc(=O)n3C)cc1	-5	-16	5%	-5.6	-9%	1.0%&0.9%	8%
O=[N+]([O-])C(=c1ccc2c(c1)N1C3=C(CCCC3)CC3CCCCC31N=2)[N+](=O)[O-] (stereo not given)	.	14	?	1.9	.	.	.
CC(=O)Nc1ccc(S(=O)(=O)N(C)CC(=O)OC(C)C(=O)N(C)C2CCCCC2)cc1 (stereo not given)	-27	-1	8%	.	-1%[15.4 µM]	.	0%
C[C@H](CO)N1C[C@H](C)[C@@H](CN(C)Cc2ccc(-c3ccccc3)cc2)Oc2ncc(C#C[C@@H](C)O)cc2C1=O	-8	.	.	.	4%	0.6%	.
CCN1CCN(CCOc2ccc(Cl)cc2)CC1	-15	3	14µM*	-2.1	14%	.	7%
CCOc1ccccc1CNc1ccc(O)cc1	-5	9	10µM*	-3.6	-11%	-11%	-24%
CCC(=O)N(Cc1ccco1)Cc1cc2cccc(C)c2n2nnnc12	-8	-3	15%	0.2	5%	-2.5%	4%
Cc1ccccc1CNC(=O)C(=O)NCC1OCCCN1S(=O)(=O)c1cccs1 (stereo not given)	-7	6	-2%	.	22%	-3.1%	7%
O=C(NCc1ccco1)C1CCN(S(=O)(=O)c2ccccc2C(F)(F)F)CC1	0	-19	.	.	5%	0.4%	-2%
COc1ccccc1C(OC(=O)c1ccco1)C(=O)NC(C)(C)C (stereo not given)	6	-3	10%	0.4	10%	-2.1%	3%
CN(C)S(=O)(=O)c1ccc(Cl)c(C(=O)NNC(=O)Cc2nc3ccccc3n2C)c1	-3	-15	.	.	?	-2.6%	12%
CCOC(=O)C1CCCN(CCC(=O)Nc2cc(C)cc(C)c2)C1 (stereo not given)	-17	-10	-10%	0.2	-9%[15.4 µM]	0.8%	-1%
Cc1oc(-c2ccccc2)nc1CS(=O)CC(=O)NC1CCCC1 (stereo not given)	-5	-10	-6%	0.3	12%	-5.5%	9%
COc1ccc(C(=O)NC2CCSc3ccccc32)cc1 (stereo not given)	-2	-4	11%	.	-7%	-1.2%	5%
COc1ccc(N2CCN(CCCNC(=O)CN3CCN(Cc4ccccc4C)C3=O)CC2)cc1	-54	-9	-2%	-2.0	5%	-5.5%	5%
CC1CCCCC1NC(=O)CSc1nnc(COc2ccccc2Cl)o1 (stereo not given)	3	4	14%	0.0	18%	3.0%	-3%
COc1ccc(C2=NOC(Cn3nc(-c4ccccc4)cc3C(=O)NCc3cccc(C(F)(F)F)c3)C2)cc1 (stereo not given)	-16	.	.	.	.	-6.5%	1%
[O-]/C(=C(\C(=S)Nc1ccc(SC(F)F)cc1)[n+]1ccccc1)c1ccc(Cl)cc1Cl	4	-1	14%	0.2	-1%	.	-7%
CC(=O)Nc1cccc(OCC(=O)NC(C)c2ccc3ccccc3c2)c1 (stereo not given)	3	-27	14%	2.9	-32%[inhibitor]	.	0%
COc1ccc(Oc2nnc(-c3ccccc3)cc2C#N)cc1	15	5	20%	-1.1	-47%[inhibitor]	-0.3%	5%
COc1cccc(CNC(=O)COC(=O)c2cc(Br)c(Br)s2)c1	-12	-9	.	.	-3%	1.9%	-7%
C[C@]12c3[nH]c4cc(-c5ccco5)ccc4c3CCN1C(=O)[C@@H](CC(=O)NCCCn1ccnc1)C[C@@H]2C(=O)N1CCOCC1	-6	.	.	.	.	3.9%	-2%
COC(=O)[C@H](CCSC)NC(=O)c1cc2c(cn1)[nH]c1ccccc12	5	4	8.9µM*	-3.7	-1%	.	-1%
Cc1ccc2nc3c(nc2c1C)CCCC3	-5	?	9%	-4.6	12%[15.4 µM]	-0.2%	8%
CCN(C(=O)c1cc(Cl)ccc1OC)c1ccccc1	10	?	10%	-0.5	-1%	-0.7%	12%
COc1ccc(N(C(=O)CNC(=O)c2ccco2)C(C(=O)NCC2CCCO2)c2ccccc2)cc1OC (stereo not given)	0	-1	4%	-3.2	-63%[inhibitor]	.	4%
O=C1CC(N2CCN(C/C=C/c3ccccc3)CC2)C(=O)N1Cc1cccs1 (stereo not given)	-22	26	11%	-0.7	11%	-1.3%	-24%
O=C(c1ccco1)N1CCN(c2nc(-c3ccc(F)cc3)cs2)CC1	-19	-4	-43%	3.1	-86%[inhibitor]	-0.2%	?
COC(=O)c1ccc(OCc2cc(=O)n3ccsc3n2)cc1	?	8	-8%	-13	-42%[inhibitor]	-3.0%	13%
O=S(=O)(c1cccc(F)c1)N1CCN(c2ncnc3scc(-c4ccc(F)cc4)c23)CC1	0	-3	.	.	-9%[15.4 µM]	25µM*	-24%
CCOc1ccc(N(CC(=O)Nc2cccc(OC)c2)S(=O)(=O)c2c(C)noc2C)cc1	-6	3	30%[activator]	1.6	-37%[inhibitor]	-0.6%	-16%
COc1ccc(-n2nc(C)c3onc(C)c3c2=O)cc1	-10	3	11%	2.0	1%[15.4 µM]	0.8%	9%
O=C(Nc1nc2ccccc2[nH]1)c1ccc(Cl)c(S(=O)(=O)N2CCCC2)c1	0	7	13%	-0.2	13%	-9.8%	-21%
Cc1ccc(S(=O)(=O)Oc2ccccc2-c2ccccc2)cc1	-6	.	.	.	-8%	.	-4%
Cc1ccc2cccc(SCC(=O)NCc3ccco3)c2n1	-9	-3	-6%	4.7	-6%	14µM*	3%
Cc1ccc(Cn2c(C(C)Nc3nc(C)cs3)nc3cc(Cl)c(Cl)cc32)cc1 (stereo not given)	-18	.	.	.	2%	1.0%	-5%
O=C(CN1C(=O)/C(=C\c2ccccc2Br)Oc2ccccc21)NCCCN1CCOCC1	-14	-12	-8%	.	25%	4.4%	-8%
CCOC(=O)c1cnc(SC2CC(=O)N(c3ccc(OC)c(OC)c3)C2=O)nc1N (stereo not given)	0	-4	6%	4.6	1%	-4.0%	1%
CC(C)(C)c1ccc(OCC(=O)NNC(=O)C2CCCO2)cc1 (stereo not given)	1	1	7%	-0.8	1%[15.4 µM]	.	5%

(next part)
structure	D2 potentiator	TRPV1 PAM	Sfp inh	Menin MLL FP FL	gsp agonist	ClpP mod	gsp antag
CCOc1ccc(-n2c(O)cc(=O)[nH]c2=O)cc1	-8	?	?	?	-18%	-1.2%	8%
COC(=O)c1sccc1-c1ccc(/C=N/OC(=O)c2ccccc2)o1	-14	.	50µM*	?	-3%	32µM*	-2%
CC(=O)Oc1ccc([C@@H]2COc3c(ccc4c3C=CC(C)(C)O4)C2)c(OC(C)=O)c1	-18	.	.	.	.	-1.4%	-5%
CCOc1ccc(S(=O)(=O)N2CCCCC2)cc1NC(=O)Cc1ccccc1	5	-14	.	.	25%	1.2%	-14%
CCOC(=O)Cc1cc(-c2ccc(O)cc2)nc2ccc3ccccc3c12	-2	-11	12%	7.4	13%	32µM*	?
COc1ccc(/C=C/C(=O)NCCCc2ccccc2)cc1	16	-16	-17%	12	-2%	28%	9%
Cc1nn(-c2ccccc2)c(=O)c2ccccc12	0	1	8%	-1.7	8%[15.4 µM]	.	0%
Cc1ccc(C(=O)NCC(=O)OCc2nnc(-c3ccccc3)o2)cc1	1	2	6%	2.9	-28%	-3.3%	3%
CCCNCc1cc(OC)c(OCC(=O)NCCc2ccccc2)cc1Br	4	-11	-2%	0.4	12%	-2.1%	9%
Cc1ccc(C(C)C)c(OCC(=O)NNC(=O)C(C(C)C)N2C(=O)c3ccccc3C2=O)c1 (stereo not given)	-23	0	15%	5.5	-10%	-2.1%	-14%
O=C(CNC(=O)c1ccc(Br)o1)Nc1cccc(-c2cnc3ccccc3n2)c1	-3	7	0%	-0.8	0%	-7.1%	0%
O=C(Nc1sc2c(c1CN1CCOCC1)CCC2)c1ccc(F)cc1	-9	-19	-18%	4.5	13%	15%	-22%
O=C(N/N=C/c1cn(-c2ccccc2)nc1-c1cc2ccccc2o1)c1cccnc1	0	-2	4%	4.1	-2%[15.4 µM]	.	?
Cc1cc(C)n(CCCNC(=O)c2ccc(S(=O)(=O)NCc3ccco3)cc2)n1	1	-1	15%	-1.2	-31%[inhibitor]	2.4%	-4%

Source: PubChem BioAssay
